# Screening data (PubChem BioAssay)
# GIV Gai3 FP – inhibitors of GIV GBA-motif binding to rat Galpha-i3 | P08753 | Galpha-i3/FITC-GIV peptide fluorescence polarization, 90 min; active compounds read low; scaled: aluminum fluoride 0%, vehicle 100% | percent of control (FP), % (concentration not given with the values) | 0.42% of 210,000 active;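 active means replicate mean at 85% of control or lower, very high polarization wells dropped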;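 further: wells of about 15 µL received 100 nL stock; the first replicate is given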
# Target sequence (P08753 whole entry, looked up): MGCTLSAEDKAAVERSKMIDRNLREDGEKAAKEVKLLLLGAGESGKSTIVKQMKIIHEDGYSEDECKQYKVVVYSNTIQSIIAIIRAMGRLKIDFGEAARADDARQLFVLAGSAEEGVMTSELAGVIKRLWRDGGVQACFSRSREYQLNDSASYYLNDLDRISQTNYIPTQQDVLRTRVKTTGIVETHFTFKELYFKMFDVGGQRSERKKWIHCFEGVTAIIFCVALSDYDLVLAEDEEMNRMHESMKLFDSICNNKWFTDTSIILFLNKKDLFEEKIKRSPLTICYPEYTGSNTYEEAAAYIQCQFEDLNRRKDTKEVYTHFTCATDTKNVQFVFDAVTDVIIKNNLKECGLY
# Sa growth inh – inhibitors of Staphylococcus aureus growth at 42 °C. S. aureus RN4220 growth, OD600, 20 h; active compounds read low. relative growth, % (no concentration beside the values). 0.53% of 170,000 active;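 active means growth at 42 °C up to 50% and 20 or more points under that at 30 °C, or under 10% at both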;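 further: 300 nL library stock went into each well; scaled to the means of positive and negative controls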
# HCMV NEC inh – disrupts HCMV UL50-UL53 complex binding; AID 1918969; HTRF UL50-UL53 interaction, normalized percent inhibition; 0.15% of 190,000 active; inhibition, % (test concentration not listed);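 active means both replicates at 50% or more, plus weaker picks with an unusually low signal ratio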;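 further: stock transfer was 100 nL into about 20 µL; 0% = negative control wells and 100% = wells with untagged competitor protein; inactives centre near -12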
# Sa growth inh second temp – recorded beside Sa growth inh, whose call it bears; relative growth, %; measured here: growth at 30 °C;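 optical density after 20 h as mean of two plates; 100% = untreated growth and lower means inhibition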
# The depositor's hits bear a star; / = not tested or not shown; & = joins results of further samples.
item	Compound	GIV Gai3 FP	Sa growth inh	Sa growth inh second temp	HCMV NEC inh
1	CC(=O)Nc1cccc(NC(=O)Cn2cnc3c(oc4ccccc43)c2=O)c1	109.6	117.3	85.5	/
2	Cc1ccc(CNC(=O)c2ccc(CN3CC(=O)N4CCCCC4C3=O)cc2)cc1 (configuration not stated)	101.2	106.6	88.2	/
3	CCN1C(=O)CC(c2ccccc2)S(=O)(=O)c2ccccc21 (configuration not stated)	101.0	98.0	86.9	-6.9
4	Cc1n[nH]c(=O)nc1NCc1ccccc1	98.2	99.8	92.2	-7.0
5	COC(=O)c1ccc(N2C(=O)CSC2c2ccc(Br)cc2)cc1 (configuration not stated)	110.1	/	/	19.4
6	CC(C)Cc1nn(-c2ccccc2)cc1/C=C1\CCC(C2CCCC2)C1=O (configuration not stated)	103.6	117.3	86.3	/
7	COCC(=O)Nc1c(C(=O)Nc2cccc(OC)c2)oc2ccccc12	102.0	92.5	82.9	-3.0
8	CCCCNc1ccc(-c2nc(-c3ccncc3)no2)cc1[N+](=O)[O-]	101.5	97.1	86.6	-18.9
9	O=CN/N=C/c1ccc(N2CCOCC2)s1	/	101.5	91.8	-64.0
10	CN(C)CCN(C)C1Cc2ccccc2C1	97.4	84.4	118.0	3.1
11	N#CNC(=Nc1ccccc1C(F)(F)F)N1CCCC1	106.2	97.3	87.7	-49.7
12	Cc1cc(/C=N/N2C(=O)c3ccccc3C2=O)cc(C)c1O	/	109.9	88.0	-22.0
13	O=C1CC(c2nc3ccccc3n2CCc2ccccc2)CN1Cc1ccccc1 (configuration not stated)	139.4	131.5	82.2	0.2
14	Cc1cccc(CNC(=O)C2CCN(c3nn4cc(-c5ccc(F)cc5)nc4s3)CC2)c1	100.6	93.4	84.8	/
15	N#Cc1cnn(C(=O)c2cccs2)c1C1CC1	102.9	109.8	86.5	-19.9

# An excerpt from above in order of their number in Sa growth inh, ascending:
cpd | SMILES | Sa growth inh
4 | Cc1n[nH]c(=O)nc1NCc1ccccc1 | 99.8
15 | N#Cc1cnn(C(=O)c2cccs2)c1C1CC1 | 109.8
13 | O=C1CC(c2nc3ccccc3n2CCc2ccccc2)CN1Cc1ccccc1 (configuration not stated) | 131.5

# Further compounds.
item	Compound	GIV Gai3 FP	Sa growth inh	Sa growth inh second temp	HCMV NEC inh
16	Cc1cc(=O)n2c(n1)OC(CO)C2 (configuration not stated)	/	98.3	95.0	-17.0
17	CCOc1ccc(Nc2cc(C)nc3nc(Cc4ccc(Cl)cc4)nn23)cc1	101.6	91.8	84.5	-38.2
18	CN=c1scc(-c2[nH]c(C)c(C(=O)OC)c2C)n1C	/	85.8	85.0	-20.1
19	COC(=O)c1cc(=O)n(CCc2ccccc2)c(=NCCc2ccccc2)s1	99.2	87.2	95.9	/
20	COc1ccc(CNC(=O)Cn2c(SCC(=O)Nc3ccc(C)c(C)c3)nc3ccccc32)cc1	97.3	87.3	66.7	/
21	CCC(C(=O)Nc1cc(F)ccc1F)n1nc(C)c2c(C)n(-c3ccccc3)nc2c1=O (configuration not stated)	90.9	/	/	-3.1
22	O=C(NCc1ccc(F)cc1)c1cc2c(s1)-c1ccccc1SC2	101.3	105.6	78.2	-20.2
23	Cc1nc2c3ccccc3n3c(CCCC(=O)O)nnc3n2n1	96.5	91.2	91.7	/
24	O=C(Nc1ccc2nc3n(c(=O)c2c1)CCCC3)Nc1ccc(Br)cc1F	100.9	/	/	11.5
25	COc1ccc(-c2c(C#N)c(N)nc(SC3CCCCC3=O)c2C#N)cc1 (configuration not stated)	104.6	/	/	-11.7
26	Cc1csc2ncnc(N3CCCCC3)c12	98.7	108.9	90.4	-0.2
27	CC1=NN2C(=NC(=O)C(n3nnnc3C)C2c2ccccc2)O1 (configuration not stated)	/	66.1	93.4	-28.1
28	Cc1cccc(NC(=O)C2CCN(c3ccc(-c4cccs4)nn3)CC2)n1	102.7	96.1	88.4	-71.4
29	Cc1cc(NNS(=O)(=O)CC23CCC(CC2=O)C3(C)C)nc2ccccc12 (configuration not stated)	/	87.7	61.3	3.1
30	CC(=O)Nc1ccc(NC(=O)c2cc(-c3cccs3)on2)cc1	97.2	105.5	79.9	-14.3
31	CCn1c(=O)c2sccc2n2c(CCC(=O)NC3CCCC3)nnc12	95.1	/	/	-5.8
32	CCOC(=O)c1ccccc1NC(=O)COC(=O)C(C)N=C1NS(=O)(=O)c2ccccc21 (configuration not stated)	/	78.7	89.8	-27.3
33	O=C(NCc1ccco1)N1c2ccccc2Sc2ccccc21	109.3	111.0	97.6	-0.2
34	CCOc1ccc(Nc2nc(C)c(NC(=O)c3ccc(C)cc3)c(Nc3ccc(OCC)cc3)n2)cc1	111.9	111.1	93.3	19.8
35	COc1ccccc1N1C(=O)C=C(Nc2ccccc2)C1=O	100.9	106.4	106.9	-40.5
36	Cc1ccc(CNC(=O)Cc2csc3ccccc23)cc1	104.8	106.3	102.7	-1.7
37	Cc1cc2cc(C#N)c(N3CCOCC3)nc2cc1Cl	103.9	126.3	100.6	7.5
38	Cn1cnc2c1c(=O)[nH]c(=O)n2C	102.5	90.5	89.7	-30.7&-3.6&-31.0
39	O=C(c1cccs1)N1CCN(c2cc(C(F)(F)F)nc3ccccc23)CC1	114.2	102.3	89.7	-24.9
40	c1ccc2c(-c3nnc(CN4CCCCC4)o3)cccc2c1	102.6	103.9	92.4	-6.9
41	Cc1cccc(OCC(=O)NCC2(N3CCN(C)CC3)CCCCC2)c1C	102.8	99.1	90.3	0.9
42	c1ccc(-c2[nH]ncc2CNCc2cccs2)cc1	105.0	91.3	84.3	/
43	COC(=O)c1ccccc1NC(=O)c1ccc(CN2CC(=O)N3CSCC3C2=O)cc1 (configuration not stated)	108.1	/	/	-2.6
44	Cc1cccc(NC(=O)CCOc2ccccc2)c1	102.3	101.6	101.8	/
45	CCN(CC)CCSc1nnc2c3cc(F)ccc3n(CC)c2n1	106.5	94.5	95.8	-55.9
46	CCc1ccc(NS(=O)(=O)c2cnn(CC)c2)cc1	96.4	106.6	102.0	-42.5
47	COc1cccc(NC(=O)N2CC=C(c3c[nH]c4ccccc34)CC2)c1	122.9	/	/	4.1
48	CC1CCCC(C)N1C(=O)COC(=O)c1ccccc1O (configuration not stated)	/	98.6	89.7	-28.6
49	O=C1C2C3C=CC(C3)C2C(=O)N1N1CCCCC1 (configuration not stated)	95.9	95.3	95.9	-7.5
50	Cn1ncnc1C(O)(c1c[nH]c2ccccc12)C(F)(F)F (configuration not stated)	/	93.5	94.5	-5.7
51	CCc1ccc2c(c1)-c1ccccc1S(=O)(=O)N2CC(=O)N(C)C	104.2	/	/	-2.6
52	CCOC(=O)c1ccc(NC(=S)NC(C)c2ccc3c(c2)OCCO3)cc1 (configuration not stated)	105.2	107.2	63.8	-4.3
53	CCOc1ccc(Nc2cc(C)nc3nncn23)cc1	104.8	97.0	88.8	-12.4
54	O=P(O)(CN1CCOCC1)C1Cc2ccccc2C1	98.2	104.1	85.7	/
55	O=C(CSc1nnc(COc2ccccc2Cl)n1C1CC1)c1ccc(Cl)s1	/	92.2	76.2	-23.1
56	CC1CCN(S(=O)(=O)c2ccc(C(=O)NCCCN3CCCC3=O)cc2)CC1	/	83.1	87.4	-11.9
57	CCCn1c(=O)c(-c2nc3ccccc3c(=O)[nH]2)c(O)c2ccccc21	/	95.2	83.4	-6.4
58	CN(CCC#N)C(=O)c1nn(C)c2c1COc1ccccc1-2	98.4	111.3	82.8	/
59	COc1ccc(Cc2nnc(N)s2)cc1OC	98.3	96.7	92.4	-5.5
60	CCOC(=O)c1c(C)oc2nc(C)nc(NCc3cccc(OC)c3)c12	105.3	95.5	93.2	/
61	CS(=O)(=O)c1ccc(-c2nnn(Cc3ccccc3)n2)cc1	102.3	117.1	99.3	-11.8
62	CCS(=O)(=O)N1CCc2cc(C(=O)CSc3n[nH]c(=O)n3Cc3ccccc3)ccc21	/	114.7	81.2	-21.1
63	COC(=O)c1ccccc1COn1c(=O)c[n+]([O-])c2ccccc21	109.1	111.0	93.0	-80.7
64	Cc1ccc(CCNC(=O)CCN2N=C(c3ccc(C)cc3)CCC2=O)cc1	110.7	94.4	102.2	/
65	COCC(C)Nc1ncnc2c1cnn2-c1cccc(Cl)c1 (configuration not stated)	105.5	104.7	89.1	/
66	O=C(COC(=O)c1cccc(O)c1)c1cccc(C(F)(F)F)c1	/	125.0	82.0	-26.9
67	COc1ccc(CNC(=O)c2ccc(-c3nc(CS(=O)c4ccc(C)cc4)c(C)o3)cc2)cc1 (configuration not stated)	104.8	104.2	89.9	/
68	CCOc1ccc(-c2nnc(N3CCCCC3)c3ccccc23)cc1	99.4	88.9	85.1	/
69	CC(=O)NCCc1ccc(C(=O)CSc2nnc(C3CC3)n2C2CC2)cc1	/	82.2	89.6	-17.6
70	Nc1nc(F)cc(N2CCOCC2)n1	96.7	/	/	-2.7
71	Cc1cc(C(=O)Nc2c(C)nn(Cc3ccccc3)c2C)on1	94.9	102.6	88.2	1.6
72	O=C(NCc1ccccc1)NS(=O)(=O)c1ccccc1Cl	104.2	108.0	90.4	/
73	CCC(C(=O)NC1CCCc2ccccc21)n1nc(C)n2c(cc3sccc32)c1=O (configuration not stated)	103.6	110.1	72.5	/
74	CN(C)S(=O)(=O)N1CCC(C(=O)Nc2ccccc2)CC1	104.0	96.0	98.9	-11.8
75	O=C(/C=C/c1cccs1)N(CC1CCCO1)c1nc2ccccc2s1 (configuration not stated)	/	76.3	91.9	-18.4

# An excerpt from above, reduced to Sa growth inh second temp and HCMV NEC inh.
entry	mol	Sa growth inh second temp	HCMV NEC inh
70	Nc1nc(F)cc(N2CCOCC2)n1	/	-2.7
61	CS(=O)(=O)c1ccc(-c2nnn(Cc3ccccc3)n2)cc1	99.3	-11.8
75	O=C(/C=C/c1cccs1)N(CC1CCCO1)c1nc2ccccc2s1 (configuration not stated)	91.9	-18.4
66	O=C(COC(=O)c1cccc(O)c1)c1cccc(C(F)(F)F)c1	82.0	-26.9
71	Cc1cc(C(=O)Nc2c(C)nn(Cc3ccccc3)c2C)on1	88.2	1.6
63	COC(=O)c1ccccc1COn1c(=O)c[n+]([O-])c2ccccc21	93.0	-80.7

# 6 of the compounds above, with two lines to a compound:
# The line under a structure holds: GIV Gai3 FP | Sa growth inh | Sa growth inh second temp | HCMV NEC inh
65	COCC(C)Nc1ncnc2c1cnn2-c1cccc(Cl)c1 (configuration not stated)
    105.5 | 104.7 | 89.1 | /
66	O=C(COC(=O)c1cccc(O)c1)c1cccc(C(F)(F)F)c1
    / | 125.0 | 82.0 | -26.9
67	COc1ccc(CNC(=O)c2ccc(-c3nc(CS(=O)c4ccc(C)cc4)c(C)o3)cc2)cc1 (configuration not stated)
    104.8 | 104.2 | 89.9 | /
68	CCOc1ccc(-c2nnc(N3CCCCC3)c3ccccc23)cc1
    99.4 | 88.9 | 85.1 | /
69	CC(=O)NCCc1ccc(C(=O)CSc2nnc(C3CC3)n2C2CC2)cc1
    / | 82.2 | 89.6 | -17.6
70	Nc1nc(F)cc(N2CCOCC2)n1
    96.7 | / | / | -2.7

# Next structures:
item	Compound	GIV Gai3 FP	Sa growth inh	Sa growth inh second temp	HCMV NEC inh
76	CCOC(=O)c1ccc(N=Cc2ccc(Cl)cc2)cc1	/	105.9	67.2	-6.2
77	Fc1ccc(Nc2nc3nonc3nc2N2CCC(Cc3ccccc3)CC2)cc1	95.7	/	/	-7.6
78	Cc1onc(-c2ccccc2Cl)c1C(=O)Nc1ccccc1Cl	/	94.6	64.2	1.9
79	CCN(CC)c1nn2c(=O)c(C(=O)NCc3ccccc3Br)cnc2s1	109.1	114.4	89.5	/
80	O=C(CCCN1C(=O)CSc2ncccc21)N1CCc2ccccc21	100.2	86.0	83.1	/

# Ordered by SMILES length (largest number first): 4 of the compounds above.
item	Compound	GIV Gai3 FP	Sa growth inh	Sa growth inh second temp	HCMV NEC inh
29	Cc1cc(NNS(=O)(=O)CC23CCC(CC2=O)C3(C)C)nc2ccccc12 (configuration not stated)	/	87.7	61.3	3.1
64	Cc1ccc(CCNC(=O)CCN2N=C(c3ccc(C)cc3)CCC2=O)cc1	110.7	94.4	102.2	/
33	O=C(NCc1ccco1)N1c2ccccc2Sc2ccccc21	109.3	111.0	97.6	-0.2
4	Cc1n[nH]c(=O)nc1NCc1ccccc1	98.2	99.8	92.2	-7.0
